Bioassay records from PubChem.
gsp agonist = agonists of gsp mutant (McCune-Albright syndrome); gsp mutant cells, cAMP HTRF, 30 min; control for the full effect not named in the record; Potency, µM (top dose mostly 76.9 µM), without a hit: top-dose activation (cAMP increase), hits mostly activators; actives 0.13% (n = 340,000); AID 624287; active = well fitted activation curve with a large enough effect; inconclusive = small, poorly fitted or top-dose-only effect, or another doubt; inactive = no such curve, though single readings can be large or run the other way; cell line not stated here;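 further: phosphodiesterase inhibitor Ro 20-1724 added with compounds to block cAMP breakdown; potency means the concentration at half of the fitted maximal effect; nearly all actives have a fitted effect of over 60% in size; about a fifth of the inactives were tested at one dose only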
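Cells stably selected in G418 were plated at 2000/well, grown 16-24 hr, then given compounds in DMSO with the PDE inhibitor […] (300 uM solution added) for 30 min at 37C; cAMP was read by HTRF.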
ClpP mod = qHTS Assay for Activators of ClpP | ATP-dependent Clp protease proteolytic subunit (Bacillus subtilis (strain 168)), P80244 | purified B. subtilis ClpP, FRET peptide cleavage, 20 min | Potency, µM (top dose mostly 57.5 µM), for inactives: at the top dose activity change, negative = active | actives 1.9% (n = 340,000) | AID 651965, 2013; active = well fitted falling curve with a large enough effect; inconclusive = small, poorly fitted or top-dose-only effect; inactive = no such curve, though single readings can be large or run the other way; further: potency means the concentration at half of the fitted maximal effect; the source files actives as falling curves though it sought activators and does not explain the sign; nearly all actives have a fitted effect of over 65% in size; many hits overshoot -100%
Target sequence (P80244 whole entry, looked up): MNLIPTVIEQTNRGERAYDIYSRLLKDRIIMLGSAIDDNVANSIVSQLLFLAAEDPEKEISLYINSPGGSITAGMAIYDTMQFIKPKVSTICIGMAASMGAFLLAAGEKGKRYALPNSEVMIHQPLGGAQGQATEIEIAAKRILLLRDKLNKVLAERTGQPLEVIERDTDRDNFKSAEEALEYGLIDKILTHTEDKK
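FRET quenching reversal measured ClpP activation: 10 microg/mL B. subtilis ClpP at pH 8 with the FRET-FV decapeptide, read at 430 nm after 320 nm excitation. The 20-min minus 0-min signal was scaled between DMSO/no-enzyme wells and ADEP (5.8 microM final).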
PINK1 expr mod = modulators of PINK1 expression; PINK1 immunofluorescence, high-content cytometry, 24 h; actives 0.2% (n = 410,000); Potency, µM (doses to about 76.6 µM), for inactives: at the top dose activation (PINK1 increase), hits mostly activators; active = well fitted activation curve with a large enough effect; inconclusive = small, poorly fitted or top-dose-only effect; inactive = flat fitted curve, though single readings scatter; cell line not stated here;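 further: potency means the concentration at half of the fitted maximal effect; % of control where 0% means no effect; nearly all actives have a fitted effect of over 65% in size; a mitochondrial uncoupler was the plate control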
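Decision-based qHTS: stable cells, 24 h exposure to five compound concentrations, CCCP as control. Fixed cells stained for PINK1 plus nuclear, mitochondrial and cell markers, cytometer read.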
Menin MLL FP FL = displaces fluorescein MLL peptide from human menin. Fluorescence polarization, fluorescein-MLL peptide displacement from menin. FP activity change, % at 61.4 µM. 290,000 tested, under 10 active. AID 1766; inconclusive = falling polarisation curve, or a change in total fluorescence; inactive = total fluorescence flat and polarisation flat or rising; no compound was filed as active; the % refers to the polarisation; negative = inhibition;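 further: % of control where 0% means no effect; inhibitors lower the polarisation; unlabelled MLL peptide was the positive control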
gsp antagonist = antagonists of gsp mutant (McCune-Albright syndrome); gsp-mutant cells, cAMP HTRF, 30 min; control for the full effect not named in the record; actives 0.4% (n = 340,000); Potency, µM (series often up to 76.9 µM), for inactives: top-dose activity change, negative = inhibition, usual class: inhibitors; active = falling curve of any shape with a large fitted effect; inconclusive = falling curve, mostly with a smaller effect; inactive = flat or rising curve; cell line not stated here;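 further: intracellular cAMP measured with PDE inhibitor Ro 20-1724 present during compound exposure; potency means the concentration at half of the fitted maximal effect; on the % scale 0 is the no-effect control and ±100 the full control effect; nearly all actives have a fitted effect of over 65% in size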
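Measurement of cellular cAMP by homogeneous time-resolved fluorescence following a 30 min compound exposure at 37C. The PDE inhibitor […] was present throughout; the assay buffer was DPBS with 0.05% BSA and 0.005% Tween 20.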
Sfp PPTase inh = blocks B. subtilis Sfp PPTase activity. Biochemical Sfp PPTase activity, qHTS. AID 1490. Q9F4F7. actives 3.5% (n = 310,000). Potency, µM, inactives show max response, negative = inhibition, usual class: inhibitors; active means well fitted inhibition curve with a large enough effect; inconclusive means small, poorly fitted or top-dose-only effect, or another doubt; inactive means no such curve, though single readings can be large or run the other way;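 further: the enzyme is Sfp with the accession as filed and its product quenches rhodamine fluorescence; potency means the concentration at half of the fitted maximal effect; 0% = enzyme reaction without inhibitor and -100% = no enzyme wells; top concentration of the series not given in the record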
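After 15 min at room temperature with compound, 15 nM Sfp received 5 uM rhodamine-CoA plus 12.5 uM BHQ-2-ybbR (50 mM Hepes pH 7.6, 10 mM MgCl2). Rate came from the fluorescence difference over 30 min, ex 525/em 598 nm.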
D2 ag = activates the human D2 dopamine receptor. P14416. DiscoveRx PathHunter D2 beta-arrestin, luminescence, 90 min; 100% = 57 uM dopamine signal. activation, % (no concentration beside the values). actives 0.084% (n = 360,000). AID 624465; in the data active = activation above about 40%; inconclusive = about 15% to 40%; inactive = below about 15%; further: compound concentration not given in the record; the text of the record calls up to 30% inactive
Target sequence (P14416 whole entry, looked up): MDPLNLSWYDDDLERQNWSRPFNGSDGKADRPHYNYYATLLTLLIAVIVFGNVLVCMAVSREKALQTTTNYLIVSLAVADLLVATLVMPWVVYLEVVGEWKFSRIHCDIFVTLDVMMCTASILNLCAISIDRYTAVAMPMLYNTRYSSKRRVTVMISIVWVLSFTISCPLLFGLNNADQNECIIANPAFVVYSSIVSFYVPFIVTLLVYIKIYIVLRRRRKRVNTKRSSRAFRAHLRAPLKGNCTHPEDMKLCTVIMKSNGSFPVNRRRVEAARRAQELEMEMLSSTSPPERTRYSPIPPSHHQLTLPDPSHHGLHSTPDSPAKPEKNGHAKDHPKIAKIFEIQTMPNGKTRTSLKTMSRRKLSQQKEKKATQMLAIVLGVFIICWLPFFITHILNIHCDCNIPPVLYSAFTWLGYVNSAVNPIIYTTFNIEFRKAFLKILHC
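Agonist mode: compounds alone added to overnight-plated D2 PathHunter cells for 90 min at 37 C, with 57 uM final dopamine (EC100) defining full response. Beta-arrestin recruitment detected by chemiluminescent reagent, read after 1 h at ambient temperature.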
* marks the source's active call; other numbers are inactive results; ? = inconclusive; . = not tested or not shown; & = joins results of further samples; [ ] = dose if it differs, or a comment.

The line under a structure holds: ClpP mod	Menin MLL FP FL	gsp antagonist	D2 ag	gsp agonist	PINK1 expr mod	Sfp PPTase inh
CCOC(=O)N1CCN(C(=O)CCNS(=O)(=O)c2cc(Br)cnc2N)CC1
    ?	1.1	-9%	-2.8	-2%	-1.5%	12%
COc1cccc(C(=O)N2N=C(c3cccc(OC)c3)CC2(O)C(F)(F)F)c1 (centres undefined)
    -0.4%	-5.3	-7%	-3.6	-16%	1.5%[38.3 µM]	-10%
CC(=O)c1ccc(NC(=O)C(C)NCc2ccccc2Cl)cc1 (centres undefined)
    .	6.7	1%	2.2	-22%	0.4%	12%
O=C(Nc1ccc(S(=O)(=O)N2CCCCC2)cc1)c1ccccc1Cl
    -1.5%	-1.6	5%	2.0	-5%	-3.2%	0%
COc1ccc(-c2nnc(SCC(=O)NCCc3ccccc3)o2)cc1
    -1.8%	-0.7	2%	-2.6	?	2.6%	11%
O=C(O)c1ccccc1C(c1ccc(O)cc1)c1ccc(O)cc1
    .	3.3	15%	3.1	-10%	0.0%	-1%
CC1(C)CCCN(Cc2c(O)ccc3c(=O)c(-c4nc5ccccc5s4)c(N)oc23)C1
    .	2.7	-16%	-1.5	18%[15.4 µM]	0.4%	5%
Cc1[nH]c2ccccc2c1/C=N/NC(=O)Nc1ccccc1
    4.5%	3.5	?	-2.6	-10%	-2.8%	16%
CCC(CO)Oc1cc(NC(=O)c2ccccc2C)c2ncn(C(C)C)c2c1 (centres undefined)
    -3.6%	.	-2%	6.2	.	0.8%	.
CCCC(=O)N(C)c1nnc(-c2ccc(OC)cc2)s1
    ?	-0.1	-15%	-7.0	12%	0.2%	-12%
Cc1cc(C)n(-c2nnc(Cl)c3ccccc23)n1
    -0.1%	-0.6	-17%	-3.5	-44%[inhibitor]	-0.7%	7%
CC(OC(=O)C1CCN(S(=O)(=O)c2ccccc2)CC1)C(=O)Nc1ncc(Cl)cc1Cl (centres undefined)
    -1.2%	8.3	?	2.5	-21%	-2.2%	6%
COc1ccc(N2CCN(S(=O)(=O)c3ccc(-n4cnnn4)c(C)c3)CC2)cc1
    -1.6%	-1.9	4%	2.3	12%	7.3%	0%
CCCCOC(=O)c1[nH]c2c(c1C)C(=O)CC(c1cc(OC)c(OC)c(OC)c1)C2 (centres undefined)
    1.9%	2.1	?	10	-99%[inhibitor]	5.8%	15%
CCOC(=O)Cc1csc(NC(=O)CCNS(=O)(=O)c2ccc3c(c2)CCC(=O)N3)n1
    0.4%	6.1	12%	-2.9	-1%	0.9%	8%
CCOC(=O)c1oc2cc(O)cc(C)c2c(=O)c1-c1cscn1
    0.2%	-9.5	-15%	-1.4	17%	2.8%	11%
N#CNC1=NCN(Cc2ccccc2)CN1
    -1.3%	0.3	0%	-2.6	?	-0.2%	11%
C/C=C(\C)C(=O)NCCN1C2=NC[C@@H](C)N2C[C@H]1Cc1ccc(O)cc1
    -5.2%	-5.9	-5%	-3.4	14%	0.0%	12%
CCCCCc1c(C)nc(SCC(=O)O)[nH]c1=O
    1.2%	-2.8	-12%	-3.6	-22%	1.5%	-6%
COc1ccc2c(c1OC)C(=O)OC2Nc1nc(-c2cc3cc([N+](=O)[O-])ccc3oc2=O)cs1 (centres undefined)
    -2.0%	-0.6	-5%	-3.3	-12%	2.8%	1%
CC1CN(C(=O)CCC(=O)NCc2ccccc2Cl)c2ccccc2S1 (centres undefined)
    -4.4%	2.1	-2%	-6.0	-32%[inhibitor]	1.3%	19%
Cc1ccc(/C=N/N=C/c2ccc(C)s2)s1
    0.2%	-2.1	-8%	-3.4	-28%	14%	-30%
O=C(NCc1ccccc1F)Nc1nnc([C@H]2C[C@H](O)[C@@H](CO)O2)s1
    -0.9%	.	.	-1.8	.	-0.9%	.
O=C(CSc1nc(-c2cccs2)cc(C(F)(F)F)n1)NCc1ccccc1
    35µM*	6.2	4%	-3.3	0%	11%[38.3 µM]	-11%
Cc1ccc([N+](=O)[O-])cc1S(=O)(=O)NCCc1c(C)[nH]c2ccccc12
    0.7%	3.8	-10%	-3.6	0%	6.7%	-3%
COc1ccccc1N1CCN(Cc2c[nH]c3ccccc23)CC1
    .	-0.6	-6%	-1.0	7%[15.4 µM]	0.7%	16%
COc1ccc2cc(CCNC(=O)CC(C)(C)C)c(=O)[nH]c2c1
    -22%	2.7	-12%	0.7	-7%	.	-10%
O=C(NC1CCCCC1)C(c1ccccc1F)N(C(=O)c1csnn1)C1CCCC1 (centres undefined)
    .	-5.2	-11%	-12	-32%[inhibitor]	5.0%	6%
COc1ccc(C2(C)NC(=O)N(CC(=O)c3cc(C)n(C4CC4)c3C)C2=O)cc1OC (centres undefined)
    -7.8%	.	3%	1.0	-60%[inhibitor]	-0.1%	.
CC(=O)Nc1sc(-c2ccc(Cl)cc2)nc1-c1ccccc1
    .	1.5	-3%	-0.7	19%[15.4 µM]	7.2%	20%

Some of these compounds in order of their number in gsp antagonist, falling.
| Molecule | Menin MLL FP FL | gsp antagonist | D2 ag | gsp agonist | PINK1 expr mod | Sfp PPTase inh |
| --- | --- | --- | --- | --- | --- | --- |
| O=C(O)c1ccccc1C(c1ccc(O)cc1)c1ccc(O)cc1 | 3.3 | 15% | 3.1 | -10% | 0.0% | -1% |
| CC1CN(C(=O)CCC(=O)NCc2ccccc2Cl)c2ccccc2S1 (centres undefined) | 2.1 | -2% | -6.0 | -32%[inhibitor] | 1.3% | 19% |
| C/C=C(\C)C(=O)NCCN1C2=NC[C@@H](C)N2C[C@H]1Cc1ccc(O)cc1 | -5.9 | -5% | -3.4 | 14% | 0.0% | 12% |

More compounds.
The line under a structure holds: ClpP mod	Menin MLL FP FL	gsp antagonist	D2 ag	gsp agonist	PINK1 expr mod	Sfp PPTase inh
CC1CCN(CCCNC(=O)CN2C(=O)CSc3ccc(S(=O)(=O)N4CCCCC4)cc32)CC1
    -2.3%&0.8%	-0.6	-1%	-2.9	0%	-1.3%&-12%	16%
CCN(CC)C(=O)CC(c1ccc2c(c1)OCO2)c1c(OC)cc(OC)c2c(-c3ccccc3)cc(=O)oc12 (centres undefined)
    -28%	9.5&3.3	-11%	-0.7	-3%	1.8%	-20%&-3%
CCCC(=O)NC(=S)Nc1ccccc1F
    1.0%	8.6	3%	1.2	?	-0.7%	21%
CCOC(=O)c1ccccc1NC(=O)COC(=O)Cc1ccccc1F
    -18%	.	-13%	-1.7	5%	0.9%	.
O=C(Nc1ccc(F)cc1F)c1cc(Cl)sc1Cl
    1.0%	0.2	-29%	-3.6	11%[15.4 µM]	5.8%	-8%
CCOC(=O)c1cc(NC(=O)Nc2nccs2)c(C)nc1C
    -0.9%	1.6	-4%	-1.7	-51%[inhibitor]	-0.1%	25%
O=C(CN1CCN(S(=O)(=O)c2ccc(Br)cc2)CC1)N/N=C/c1ccc(Cl)c([N+](=O)[O-])c1
    0.6%	0.4	?	0.0	-42%[inhibitor]	-2.9%	0%
COc1ccc(C(C(=O)NC2CCCCC2)N(CC2CCCO2)C(=O)C2COc3ccccc3O2)cc1OC (centres undefined)
    -8.5%	-2.2	15%	-3.7	21%	3.1%	11%
Clc1ccccc1Cn1nnc(-c2ccccc2)n1
    .	0.5	6%	-3.3	12%[15.4 µM]	0.0%	-6%
COc1ccc(COCC(O)CN2CCC(CN3C(=O)c4cccc5cccc(c45)C3=O)CC2)cc1OC (centres undefined)
    ?	-0.2	13%	-1.7	19%	0.8%	-5%
COc1ccc(-n2c(=O)n(Cc3ccccc3)c(=O)c3[nH]cnc32)cc1
    -2.8%	2.4	-2%	-12	8%	1.7%	-25%
Cc1ccc(S(=O)(=O)NNC(=O)Nc2cccc3ccccc23)cc1
    14µM*	-0.3	4%	-4.6	23%	1.2%	-2%
O=C(NCCc1ccccc1)c1ccccc1SCC(=O)N1CCCC1
    -0.9%	2.9	3%	-0.5	-61%[inhibitor]	0.4%	5%
COC(=O)c1ccc(Cn2c(O)c(N=O)c3ccccc32)o1
    -3.0%	-0.4	-13%	-0.3	8%	0.2%	6%
O=C(CSc1ccccc1F)NNC(=O)c1cncc(Br)c1
    0.4%	.	14%	-1.6	12%	1.0%	.
O=C(NCCCn1ccnc1)C(=O)NCC(c1ccco1)N1CCN(c2ccccc2)CC1 (centres undefined)
    -0.5%	0.6	4%	54*	-2%	-0.4%	12%
Cc1nn(CC(=O)N(C)C2CCS(=O)(=O)C2)c(C)c1S(=O)(=O)N(C)C (centres undefined)
    0.4%	.	4%	-1.5	-7%	1.4%	.
CCn1c(SCC(=O)Nc2cccc(OC)c2)nc2ccccc2c1=O
    -3.7%	1.3	-7%	-0.8	-21%	8.0%	-4%
CCOc1ccc(C(CCc2ccccc2)NC(=O)c2ccccc2F)cc1OCC (centres undefined)
    2.2%	1.0	-4%	-1.8	0%	11%[38.3 µM]	-2%
CC(=O)c1c(N2CCOCC2)nc2ccc(Cl)cc2c1-c1ccccc1
    .	-1.0	?	-3.5	-2%[15.4 µM]	2.1%	4%
Cc1nc2ccccn2c1/C(O)=C1\C(=O)C(=O)N(CCN2CCOCC2)C1c1ccncc1 (centres undefined)
    -3.0%	?	14%	0.7	0%	0.3%	5%
COc1ccc(Nc2cc(Cl)ccc2C(=O)O)cn1
    0.0%	?	-14%	-9.3	-2%	-0.1%	-1%
O=C(CN1CCCN(S(=O)(=O)c2ccc(F)cc2)CC1)Nc1c(Cl)cccc1Cl
    .	-2.2	-8%	5.5	26%	0.7%	-5%
COc1ccc(CC(=O)NC(c2ccccc2)c2ccccc2)cc1S(=O)(=O)N1CCOCC1
    -1.4%	0.3	-15%	-1.4	-33%[inhibitor]	1.4%	-2%
O=C(CSc1ccsc1[N+](=O)[O-])N1CCN(c2ccccc2)CC1
    ?	9.4	-9%	3.2	-6%[15.4 µM]	13%	-7%
O=C(CCCCCNS(=O)(=O)c1ccc(Br)cc1)NCCN1CCOCC1
    1.2%	-0.8	1%	0.1	-10%	4.3%[38.3 µM]	21%
CCC(=O)N/C(N)=N/c1nc(C)c2cc(OC)ccc2n1
    3.2µM*	4.6	12%	1.0	1%	3.5µM*	11%
